Screens as filed in PubChem.
HNF4A DNA FP – change in binding of human HNF4 alpha to DNA. activity change, % at 10 µM. AID 1224865. HNF4a-FITC DNA binding, fluorescence polarization, 1 h. actives 0.3% (n = 360,000). P41235; in the data active means activity change above about 30%, passing the limit was not always enough;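 further: controls were the assay level and a saturating level of protein; the project sought stronger binding though the title names inhibitors; some compounds called inactive have numbers as strong as hits; positive values seem to mean higher polarization but the record does not say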
Target sequence (P41235 whole entry, looked up): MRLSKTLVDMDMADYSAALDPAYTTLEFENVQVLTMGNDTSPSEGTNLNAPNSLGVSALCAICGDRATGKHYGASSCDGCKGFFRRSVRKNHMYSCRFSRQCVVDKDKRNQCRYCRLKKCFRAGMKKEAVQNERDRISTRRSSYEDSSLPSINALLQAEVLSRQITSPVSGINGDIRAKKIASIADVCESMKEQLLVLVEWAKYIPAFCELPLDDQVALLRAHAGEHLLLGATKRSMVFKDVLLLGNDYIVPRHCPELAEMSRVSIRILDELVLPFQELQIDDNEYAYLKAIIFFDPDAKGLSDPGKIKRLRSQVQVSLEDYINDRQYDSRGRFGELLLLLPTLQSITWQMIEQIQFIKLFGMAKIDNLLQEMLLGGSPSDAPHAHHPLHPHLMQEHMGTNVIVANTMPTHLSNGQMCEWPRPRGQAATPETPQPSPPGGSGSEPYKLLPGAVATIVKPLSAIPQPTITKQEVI
Numbers without * were called inactive; & = joins results of further samples. Only part of the results is shown, so the mix of outcomes need not match the whole.

mol	HNF4A DNA FP
COc1ccccc1Cc1c(-c2cccc(Cl)c2)nc2ccc(C)cn12	1.1
CCNC(=O)C1(C)CCCN(C(=O)c2cc(C)nn2C(C)(C)C)C1 (stereo unspecified)	1.8
CCCCCC(=O)N1C[C@H](O)[C@@H](n2cc(COC(=O)c3ccccc3)nn2)C[C@@H]1c1ccc(OC)cc1	4.1
CC(=O)c1cccc(NC(=O)c2ccc(-n3cncn3)c3ccoc23)c1	0.8
COc1cc(-c2cc(NC=O)c3ncc(-c4cccc(C(=O)N(C)C)c4)n3c2)cc(OC)c1OC	5.9
CN(C)CCNC(=O)c1cccc(-c2cccc3nccn23)c1	0.2
COc1ccc(Cl)cc1Cn1c(C)c(C(=O)NCc2ccc(C#N)cc2)sc1=O	-1.1
CC(C)Oc1ccc(CN2CCC2(C)C(=O)NCc2ccc(C(F)(F)F)cc2)cc1 (stereo unspecified)	1.2
CC1(C(=O)NS(=O)(=O)Cc2cccc(Cl)c2)CCN1C(=O)C1(c2ccc(Cl)cc2)CC1 (stereo unspecified)	-1.7
COC(=O)[C@@]1(Cc2ccc(F)cc2)[C@H]2c3cc(C(=O)N4CCCC4)n(C)c3C[C@H]2CN1C(=O)c1ccccc1	-2.1
CC1CCCCC1NC(=O)C1CCC(CNS(=O)(=O)c2ccc3c(c2)C(C)(C)C(=O)N3C)CC1 (stereo unspecified)	-0.8
CN1CCN(c2ccc(-c3cc(NC=O)c4ncc(-c5ccc(F)cc5)n4c3)cc2)CC1	15
COc1ccc([C@H]2CC(=O)C[C@@H](CCn3cccn3)O2)cc1	8.7
O=c1ccn([C@@H]2O[C@H](CNCc3cccn3-c3nccs3)[C@@H](O)[C@H]2O)c(=O)[nH]1	2.2
Clc1ccc2nc(-c3cccc(Br)c3)c(Cc3ccccc3)n2c1	11
CC(C)Oc1ccc(F)cc1-c1cc(C(=O)NCc2cccs2)[nH]n1	-0.2
CN(Cc1ccc(Cl)cc1)C(c1cc2ccccc2o1)c1nnnn1C(C)(C)C (stereo unspecified)	-0.3
CC(CN1CCCCC1)NC(=O)c1scnc1-c1ccccc1 (stereo unspecified)	2.7
OC(c1ccccc1)(c1nc(-c2csc3ccccc23)cs1)C(F)(F)F (stereo unspecified)	-0.4
CCOC(=O)C1(C)CCCCCN1C(=O)c1ccc(Cl)nc1 (stereo unspecified)	-0.9
CC(=O)c1cccc(-c2cnc3c(NC=O)cc(-c4ccccc4F)cn23)c1	5.2
O=C(NCC1CCCCC1)c1csc([C@@H]2O[C@H](CO)[C@H](O)[C@H](O)[C@H]2O)n1	-2.5
OCCN1CCN(c2ncnc3c2ncn3[C@H]2CN(Cc3ccc(F)cc3)C[C@@H](CO)O2)CC1	3.1
Cc1ccc(CNC(=O)CSc2nc(=O)n3ccc(C)cc3n2)cc1	6.6
O=C1NC[C@H](Cc2ccc(O)cc2)N(C[C@@H]2CCCN2C[C@H](Cc2ccccc2)N2C[C@H](Cc3ccccc3)N(CCc3ccccc3)C(=O)C2=O)C1=O	1.9

Of the compounds above, 2 contain a furan ring, fused or not.
mol	HNF4A DNA FP
CC(=O)c1cccc(NC(=O)c2ccc(-n3cncn3)c3ccoc23)c1	0.8
CN(Cc1ccc(Cl)cc1)C(c1cc2ccccc2o1)c1nnnn1C(C)(C)C (stereo unspecified)	-0.3

Two of these compounds, reformatted.
> CC(=O)c1cccc(-c2cnc3c(NC=O)cc(-c4ccccc4F)cn23)c1
  HNF4A DNA FP = 5.2
> COc1ccccc1Cc1c(-c2cccc(Cl)c2)nc2ccc(C)cn12
  HNF4A DNA FP = 1.1

Later entries.
mol	HNF4A DNA FP
COCCNc1nc(NCCOc2ccccc2)c2sc(-c3ccccc3)cc2n1	3.0
CCOC(=O)[C@]12CCC=C1N(Cc1ccco1)C(=O)[C@H](CC(=O)NCC1CCCCC1)C2	7.7
CNC(C)C(=O)NC(C(=O)NC(C(=O)Nc1cccc2ccccc12)C(C)C)C(C)C (stereo unspecified)	0.4
COc1ccc2c(c1)C(CC(C)=O)N(c1ccc(-c3cccs3)cc1)C(c1ccsc1)=C2 (stereo unspecified)	6.5
Cc1cc(N2CCN(C(C(=O)NC3CCCC3)c3ccc(F)cc3)CC2)c2ccccc2n1 (stereo unspecified)	1.8
CC(=O)Nc1c(C#N)c(-c2ccccc2)c(C#N)c(=O)n1-c1ccc(C)cc1	-1.2
COc1ccc(S(=O)(=O)N2CCCC(C(=O)N3CCN(Cc4ccccc4)CC3)C2)cc1Cl (stereo unspecified)	2.3
Cc1cccc(NC(=O)c2nc[nH]c2C(=O)NC[C@@H](C)O)c1	2.1
CCOc1ccc(NC(=O)C2CCCN(S(=O)(=O)c3ccc4c(c3)C(C)(C)C(=O)N4C)C2)cc1 (stereo unspecified)	3.3
CC(C)(C)OC(=O)N1CCCN(C(c2cc3ccccc3o2)c2nnnn2C(C)(C)C)CC1 (stereo unspecified)	-2.6
C[C@@H]1CN([C@H](C)CO)C(=O)CCCn2nncc2CO[C@H]1CN(C)Cc1ccc(Oc2ccccc2)cc1	-0.5
CCOC(=O)CC1(CCc2ccccc2)Oc2ccccc2N1S(=O)(=O)c1ccc(C)cc1 (stereo unspecified)	2.5
CN1CCN(C2CN(Cc3cn(Cc4cccc(Cl)c4)nn3)S(=O)(=O)C2)CC1 (stereo unspecified)	2.3
CCCS(=O)(=O)NC(=O)C1(C)CCN(C(=O)c2cc(C)oc2C)C1 (stereo unspecified)	0.6
CCOC(=O)C1=CCC(c2ccc(CC)cc2)N(S(=O)(=O)c2ccc(C)cc2)C1 (stereo unspecified)	-1.1
Cc1cc(N2CCOCC2)nc2ccc(NC(=O)C3CCCCC3)cc12	2.3
CC(=O)NC(c1ccccc1)c1nc(-c2cccc(F)c2)cs1 (stereo unspecified)	-2.7
CCCCN(C)C(=O)c1sc(=O)n(CC(=O)c2ccccc2OC)c1C	4.4
O=C(NCCN1CCC(n2c(=O)[nH]c3ccccc32)CC1)c1ccc(F)cc1Cl	0.1
CN(Cc1ccccc1)C(=O)c1ncn2c1c(=O)[nH]c1cccnc12	2.4
CC1(Cc2ccccc2OC(F)(F)F)C(=O)Nc2ccc(OC(F)(F)F)cc21 (stereo unspecified)	-4.0
CCCCOCCCNC(=O)C[C@@H]1C[C@@]2(C(=O)OC)CC(C)(C)CC=C2N(Cc2ccccc2)C1=O	1.2
COCCNC(=O)C[C@@H]1C[C@H]2c3cc(NC(=O)Nc4ccc(F)cc4)ccc3O[C@H]2[C@H](CO)O1	1.9
CC1(C(=O)NC2CCCC2)CCC(=O)N1CCc1c[nH]c2ccccc12 (stereo unspecified)	-1.3
c1cnc2c(-c3cccc4nccn34)cccc2c1	0.2

Fetched one by one from above (7):
mol	HNF4A DNA FP
CN(Cc1ccccc1)C(=O)c1ncn2c1c(=O)[nH]c1cccnc12	2.4
O=C(NCCN1CCC(n2c(=O)[nH]c3ccccc32)CC1)c1ccc(F)cc1Cl	0.1
C[C@@H]1CN([C@H](C)CO)C(=O)CCCn2nncc2CO[C@H]1CN(C)Cc1ccc(Oc2ccccc2)cc1	-0.5
CCCCN(C)C(=O)c1sc(=O)n(CC(=O)c2ccccc2OC)c1C	4.4
CC(=O)Nc1c(C#N)c(-c2ccccc2)c(C#N)c(=O)n1-c1ccc(C)cc1	-1.2
CC(=O)NC(c1ccccc1)c1nc(-c2cccc(F)c2)cs1 (stereo unspecified)	-2.7
CCOC(=O)C1=CCC(c2ccc(CC)cc2)N(S(=O)(=O)c2ccc(C)cc2)C1 (stereo unspecified)	-1.1

(more compounds)
mol	HNF4A DNA FP
CN1OC[C@@H]2CN(C(=O)NC3CCCCC3)[C@H](c3ccc(N4CCCCC4)cc3)C[C@@H]21	0.3
Oc1ccccc1-c1cnc2cccnn12	2.7
CC(=O)C1=CCC(c2ccccc2)N(S(=O)(=O)c2ccccc2)C1 (stereo unspecified)	0.3&0.0
Nc1nc2c(ncn2[C@@H]2O[C@H](CNC(=O)[C@H](N)C3CCCCC3)[C@@H](O)[C@H]2O)c(=O)[nH]1	2.3
Cc1csc(-c2ccc3cc(Cl)cc(Cl)c3n2)n1	5.5
CCCCC(=O)N(C)c1c(CC)nc2c(OCc3ccc(Cl)cc3Cl)cccn12	0.7
CCCCCCCCN1C(=O)[C@H](CC(=O)NCCC(C)C)C[C@@]2(C(=O)OCC)CCC=C12	3.2
COc1ccc(C(C)(NC(C)=O)c2nc(-c3cccc(C#N)c3)cs2)cc1 (stereo unspecified)	2.5
CC(C)(C)NC(=O)C(c1ccc(-c2ccccc2)cc1)n1c(=O)c(-c2cc3ccccc3[nH]2)nc2ccccc21 (stereo unspecified)	10
O=c1ccn([C@@H]2O[C@H](CNCc3ccccc3OCc3ccc(Cl)cc3Cl)[C@@H](O)[C@H]2O)c(=O)[nH]1	0.4
CCNC(=O)C1CCCN(C(=O)c2cccc(Cl)c2)CC1 (stereo unspecified)	1.6
Cn1ccc2c(N3CCC3)cc3c(c21)C1CCC3O1 (stereo unspecified)	0.4
OC(c1ccccc1)(c1ccccc1)C1CCN(CCCOc2cccc(OC(F)(F)F)c2)CC1	0.4
CCCNC(=O)C1(C)CCN(C(=O)c2ccc(OC(F)F)cc2)C1 (stereo unspecified)	1.4
C[C@H](O)[C@@H]1CN2CCc3c([nH]c4ccccc34)[C@@H]2C[C@@H]1N(C)C(=O)Nc1cccc2ccccc12	-0.3
CCOC(=O)C1(C)CCCCCN1C(=O)c1ccc(C(F)(F)F)nc1C (stereo unspecified)	1.4
COc1ccc(C2=Cc3ccccc3C(CC(=O)C3CC3)N2c2ccc(C#CCCO)cc2)cc1 (stereo unspecified)	-3.9
CCCCc1ccc(S(=O)(=O)NC(=O)C2(C)CCN2C(=O)C/C=C/c2ccccc2)cc1 (stereo unspecified)	-1.3
COc1cc(OC)cc(-c2c(Sc3ccccc3)c3cc(-c4cnc(N5CCOCC5)nc4)ccc3n2C)c1	-2.1
Cc1cccc(S(=O)(=O)NC(=O)C2(C)CCN2C(=O)Cc2ccccc2)c1 (stereo unspecified)	0.4
CC(=O)C1=CCC(c2ccco2)N(S(=O)(=O)c2ccc(C)cc2)C1 (stereo unspecified)	-2.6
CC(C)C[C@H]1COc2cc(N3CCSCC3)ccc2S(=O)(=O)N1	0.6
CCOC(=O)C1(C)CCCN1C(=O)c1sccc1C (stereo unspecified)	-1.5
CCOC(=O)C1=CCN(S(=O)(=O)c2cccc(Cl)c2)C1c1ccccc1 (stereo unspecified)	1.7
COc1ccc2[nH]cc(CCNC(=O)/C=C/[C@H]3O[C@@H](n4cc(C)c(=O)[nH]c4=O)C[C@@H]3O)c2c1	-0.6
COc1cccc(C(=O)NCCN2CCC(n3c(=O)[nH]c4ccccc43)CC2)c1	3.2
CC(C(=O)NC(C)(C)C)n1c(C(c2ccccc2)c2ccccc2)nc2ccccc21 (stereo unspecified)	0.6
CCCC(=O)N1CCC1(C)C(=O)NS(=O)(=O)c1ccc(F)cc1F (stereo unspecified)	-5.7
c1ccc(N=C2SCCCS2)cc1	1.0
Cc1cc(C)n2c(Nc3c(C)cccc3C)c(CC(C)C)nc2n1	4.7
CC(C)Cc1ccc(-c2cc3nc(NCc4cccc(Cl)c4)ccn3n2)cc1	1.8
COc1cc(NC(=O)C2(C)CCN2C(=O)C(C)C)cc(OC)c1OC (stereo unspecified)	2.5
COCC(=O)N[C@H]1CC[C@@H](CC(=O)OC)O[C@@H]1CO	2.7
CC1(C)OC(=O)C2=C(C[C@@H](CCc3ccccc3)O[C@@H]2c2ccc(F)cc2)O1	0.0
CN(Cc1ccccc1)C(=O)[C@@H]1CCCN1C(=O)[C@@H]1CCCN1C(=O)c1ccccc1	-0.1
CCCC(=O)N1CCC1(C)C(=O)Nc1cccc(F)c1 (stereo unspecified)	0.5
C[C@H]1CN([C@@H](C)CO)S(=O)(=O)c2ccc(-c3ccc(C#N)cc3)cc2O[C@H]1CN(C)C(=O)CN(C)C	0.0
Cc1nc(C(F)(F)F)ccc1C(=O)N1CCC1(C)C(=O)NS(=O)(=O)c1ccccc1 (stereo unspecified)	-0.2
Fc1cccc(Cc2c(-c3ccc(Cl)cc3)nc3ccc(Cl)cn23)c1	6.8
COC(=O)C[C@H]1C=C[C@@H](NC(=O)Cc2cccnc2)[C@@H](CO)O1	-2.6
CC(C)NC(=O)C1(C)CN(S(C)(=O)=O)CC(=O)N1CCc1ccccc1F (stereo unspecified)	2.5
Cc1ccc(-c2nc3ccccc3n2C(C(=O)NC(C)(C)C)C2CC2)cc1 (stereo unspecified)	-2.3
CC1ON=C(c2ccccn2)N(Cc2ccc3c(c2)OCO3)C1=O (stereo unspecified)	3.4
C[C@H]1CN([C@@H](C)CO)C(=O)CCCn2cc(nn2)CO[C@@H]1CN(C)C(=O)Nc1cccc(Oc2ccccn2)c1	2.1
Cc1ccccc1S(=O)(=O)NC(=O)C1(C)CCN1C(=O)c1ccccc1CCc1ccccc1 (stereo unspecified)	-4.6
CCCCC[C@@H](C)N1C[C@H](COCc2ccccc2)Oc2cc(N3CC[C@@H](N(C)C)C3)ccc2S1(=O)=O	3.5
CCc1nc2ccc(C(=O)NCc3ccc(OC)cc3)cn2c1N(CC)Cc1cccc(Br)c1	2.6
CC(=O)Nc1cccc(Oc2nc(NCC3CC3)nc3ccsc23)c1	1.7
COc1cc2c(cc1OCc1ccccc1)/C(=C/C(=O)OCc1ccccc1)OC2	1.4
COc1ccc(-c2csc(C(O)c3cccc(OC)c3)n2)cc1 (stereo unspecified)	4.9
O=C(NCc1cc(Cl)cc(Cl)c1)c1ccc2sc([C@H]3C[C@H](O)[C@@H](CO)O3)nc2c1	-5.8
CC1(C(=O)NCC2CC2)Cc2c(-c3ccc4c(c3)OCO4)ccnc2O1 (stereo unspecified)	3.2
O=C([C@H]1O[C@@H](n2ccc(=O)[nH]c2=O)[C@H](O)[C@@H]1O)N1CCSC1	3.3
